YopH PTP inh: YopH (Yersinia) phosphatase inhibition | inhibition, %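 (about 10 µM by stock and volumes)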 | fluorescence Ex485/Em525 | 140,000 compounds, 0.16% hits;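 active = inhibition of 50% or more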;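 note: controls were vehicle for no effect and minimum signal wells for full effect; inactives centre near -20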
Arbovirus inh: blocks arbovirus infection; arbovirus infection cell-based antiviral screen; 200,000 compounds, 0.37% hits; inhibition, % at 10 µM; AID 1251;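 active = inhibition from about 30%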;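 note: bluetongue infection of BSR cells; cell survival read as ATP light after 72 h; 0% = infected wells without compound and 100% = uninfected wells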
Mtb bLac sens: beta-lactam sensitization of Mtb H37Rv; inhibition, % at 25 µM; M. tuberculosis H37Rv growth with meropenem, percent inhibition; hits of this screen are not shown here; 330,000 compounds, 0.27% hits;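 active = about 74% or more and at least 40 points above the plate without the antibiotic, then above 30% in a dose series; inconclusive = first-round hits that could not be retested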;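 note: growth measured after seven days incubation then overnight dye step; 0% = bacteria only wells and 100% = bacteria with antibiotic; twin plates without the antibiotic show which effects depend on it; some results filed as inactive read as strong as hits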
Mtb H37Rv: M. tuberculosis H37Rv growth inhibitors, H37Rv strain (AID 1626); M. tuberculosis H37Rv growth inhibition; higher % means a stronger effect; inhibition, % at 10 µM, or IC50 in µM where a hit was titrated; 220,000 compounds, 0.95% hits;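 active = confirmed in a dose series; inconclusive = inhibition above 80% but not taken into the dose series; inactive = below 80% or under 30% at every dose of the series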;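 note: bacteria incubated seven days before Alamar blue readout; 0% = bacteria only wells and 100% = bacteria with antibiotic wells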
RecA intein inh: blocks M. tuberculosis RecA intein splicing. cell-free RecA intein splicing, fluorescence. inhibition, %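 (about 9 µM by stock and volumes)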. 290,000 compounds, 0.75% hits; in the data active = inhibition above about 30%; inconclusive = no clear call, values can overlap the other calls;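 note: 0% = vehicle wells and 100% = reference inhibitor control wells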
Target sequence (P9WHJ3 whole entry, looked up): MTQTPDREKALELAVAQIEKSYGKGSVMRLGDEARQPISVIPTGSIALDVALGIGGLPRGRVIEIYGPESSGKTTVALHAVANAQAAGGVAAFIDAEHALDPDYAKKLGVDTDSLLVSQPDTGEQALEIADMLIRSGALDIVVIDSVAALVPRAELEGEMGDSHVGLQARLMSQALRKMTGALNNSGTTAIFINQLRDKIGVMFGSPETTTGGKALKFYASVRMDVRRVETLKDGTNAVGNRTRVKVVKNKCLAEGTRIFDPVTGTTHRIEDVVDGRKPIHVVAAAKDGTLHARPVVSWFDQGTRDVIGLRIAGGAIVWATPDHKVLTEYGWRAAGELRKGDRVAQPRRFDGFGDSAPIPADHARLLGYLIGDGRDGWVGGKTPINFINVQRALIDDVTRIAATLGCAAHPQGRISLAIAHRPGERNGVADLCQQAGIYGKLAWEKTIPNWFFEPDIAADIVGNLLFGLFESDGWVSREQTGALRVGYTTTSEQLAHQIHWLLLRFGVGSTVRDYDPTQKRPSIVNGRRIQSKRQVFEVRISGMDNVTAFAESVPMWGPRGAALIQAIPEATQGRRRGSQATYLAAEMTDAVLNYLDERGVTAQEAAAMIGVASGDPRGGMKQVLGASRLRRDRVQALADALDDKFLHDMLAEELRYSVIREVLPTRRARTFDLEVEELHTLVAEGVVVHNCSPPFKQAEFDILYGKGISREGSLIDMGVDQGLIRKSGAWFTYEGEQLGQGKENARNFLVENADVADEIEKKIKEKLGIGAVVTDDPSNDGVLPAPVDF
Arbovirus inh repeat: also measured in Arbovirus inh; calls as there; inhibition, %; measured here: 10K subset replicate screen; many hits read low in the repeat;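 first of two repeat runs on a subset; 0% = infected and 100% = uninfected wells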
Active calls of the source: *; ? = inconclusive; . = no result given.

SMILES	YopH PTP inh	Arbovirus inh	Mtb bLac sens	Mtb H37Rv	RecA intein inh	others
N/C(=N\OC(=O)CCCc1ccccc1)c1ccc(Br)cc1	.	.	2	.	2.5
COc1ccc(/C(C)=N/N2CCCCC2)c(O)c1	.	.	-6	.	-2.2
COc1ccc(C)cc1NC(=O)c1sc2ncnc(N3CCN(c4ccccn4)CC3)c2c1C	.	.	7	.	-1.1
Cc1cccc(N(CC(=O)NCCSCc2ccco2)S(=O)(=O)c2ccccc2)c1	-18	-23	-5	7%	6.2
COCC(=O)Nc1ccc(N(C)C)cc1	-4	2	3	-5%	-1.6
CC1CN(S(=O)(=O)c2ccc(NC(=O)CCCN3C(=O)c4ccccc4C3=O)cc2)CC(C)O1 (centres undefined)	-19	-4	6	-18%	0.3
COc1ccc(CCNC(=O)CN(c2cc([N+](=O)[O-])ccc2OC)S(C)(=O)=O)cc1OC	.	0	-8	1%	4.2
C/C(CCC1CC(C)OC1=O)=N\NC(N)=O (centres undefined)	.	.	-9	-4%	-2.7
O=C(O)c1cccc(Nc2ncnc3sccc23)c1	.	0	-10	2%	-0.3
CC(C)(C)c1ccc2c(c1)OC(C(=O)N/N=C\c1ccccn1)CO2 (centres undefined)	-15	-14	-6	13%	-0.9
COc1ccc(Nc2nc(N)nc(CSc3nnc(C)s3)n2)cc1	-7	2	54	2%	-0.6
O=S1(=O)C=C(SCc2ccc(Cl)c(Cl)c2)Nc2ccccc21	12	-3	-10	1%	1.5
Nc1nonc1-n1nnc(C(=O)N/N=C/c2ccc(OCc3ccc(F)cc3)cc2)c1COc1ccccc1	.	.	3	-1%	-0.3
CCCCC(=O)Nc1ccc(C(=O)NCCc2ccc(S(N)(=O)=O)cc2)cc1	.	-7	0	6%	-1.0
CCCCN(C)C(=O)c1cn(C)c2ccc(S(=O)(=O)N3CCC(C)CC3)cc2c1=O	.	.	3	.	-4.0
Cc1ccc(C(=O)Cn2nnc3ccccc32)cc1C	-34	-2	-2	10%	3.8
N#CCCn1[nH]c(-c2ccccc2)cc1=O	-22	-7	5	-3%	97*
Cc1cccc(NC(N)=S)c1	2	-4	-2	-4%	-3.6
O=C1N/C(=N/N=C/c2ccccc2O)SC1Cc1ccc(F)cc1 (centres undefined)	.	.	99	?	-1.6
CC1CN(c2snnc2C=C2C(=O)OC(C)(C)OC2=O)CC(C)O1 (centres undefined)	.	24	0	5%	-0.1
O=C1/C(=C/c2cccnc2)SC(=S)N1N1CCOCC1	.	.	-2	6%	1.3
Cn1c(=O)c2c(nc3n2CC(CO)O3)n(C)c1=O (centres undefined)	.	.	5	.	-0.8
CC(NS(C)(=O)=O)C(c1cccs1)N1CCN(c2ccc(F)cc2)CC1 (centres undefined)	-16	10	-1	-10%	3.9
Cc1occc1-c1nnc(SCC(=O)N2c3ccccc3CCc3ccccc32)n1C	-26	4	3	5%	0.2
O=C(c1n[nH]c2c1CCC2)N1CCCC(Nc2cccc(F)c2)C1 (centres undefined)	.	.	3	.	1.5
COc1ccc(S(=O)(=O)N(C)C)cc1NC(=O)COC(=O)c1nn(C)c(=O)c2ccccc12	.	8	1	1%	4.3
COc1ccc(N2COC3c4cccc5cccc(c45)C32)cc1 (centres undefined)	-7	-7	93	26%	.
Cn1c(=O)c2c(nc(NCC3CCCO3)n2Cc2cccc(Br)c2)n(C)c1=O (centres undefined)	-8	2	12	3%	2.0
CCOCC(=O)Nc1c(C(=O)Nc2ccc3c(c2)OCO3)oc2ccccc12	.	.	4	.	0.2
COc1ccc(OC(=O)c2cc(S(=O)(=O)N3CCCC3)ccc2Cl)cc1	-32	-10	3	3%	0.2
COc1ccc(CNC(=S)Nc2ccccc2C)cc1	1	-4	-4	11%	7.8
N#CCC(N)=C(C#N)C#N	-23	1	5	-13%	6.3
Cc1ccc(-c2cc(-c3nnc(SCC(=O)NC(C)C(C)C)n3N)c3ccccc3n2)cc1 (centres undefined)	-2	-3	32	6%	2.5
O=C(COC(=O)c1ccco1)NCc1ccc(Cl)cc1	.	2	-5	-2%	-3.8
C/C(=N\NC(=S)NCCc1ccccc1)c1ccc(C)cc1	-19	4	0	-15%	-2.3
COc1ccc2c(c1)CCc1c(C(=O)N3CCCc4ccccc43)noc1-2	-30	-20	20	7%	13
Cc1cccc(OCCSc2nc3ccccc3n2CC(=O)O)c1	.	.	6	.	1.3
Cc1cc(C)c(O)c(-c2cc(C(=O)Nc3cccnc3)[nH]n2)c1	.	.	-4	3%	-0.3
Cc1cc(NC(=O)CSc2nc(C(C)C)nc3sc(C)c(C)c23)no1	-41	-7	-6	-4%	-0.8
Cc1nc(NCC2CCCO2)c2nnn(Cc3ccccc3Cl)c2n1 (centres undefined)	-21	-4	-11	-4%	2.1
Cc1nc(CS(=O)c2ccc(Cl)cc2)cc(NCc2ccc(Cl)cc2Cl)n1 (centres undefined)	-19	85*	62	15%	2.0
CC(OC(=O)c1ccco1)C(=O)Nc1ccc(Cl)cn1 (centres undefined)	.	-2	-1	-2%	-1.4
O=C(c1cccnc1)N1CCN(S(=O)(=O)c2cccs2)CC1	.	.	-14	.	-1.8
Cc1ccc(Cc2cnc(NC(=O)CN3CCOCC3)s2)cc1Cl	-20	6	59	7%	1.0
CCN1/C(=C\C=C(C(C)=O)C(C)=O)Sc2ccccc21	.	-3	3	-2%	-3.2
C/C(=N\n1cnnc1)c1ccc(C#N)cc1	.	16	1	-7%	1.4
CC1(OC(=O)c2ccc(Cl)nc2)C(=O)C=C2C=C3CCCN3C=C2C1=O (centres undefined)	.	.	-3	4%	.
COc1cc(C(=O)N/N=C/c2ccc(OC(=O)N3CCOCC3)cc2)cc(OC)c1OC	-14	-15	3	-5%	0.0
CC(C)(C)C(=O)NNc1nc(-c2ccccc2)c2cc(Br)ccc2n1	-26	-6	-3	0%	-2.2
CCOC(=O)Nc1cccc(OCC(=O)Nc2ccccc2OCC)c1	-6	0	5	-3%	-1.5

(cont.)
SMILES	YopH PTP inh	Arbovirus inh	Mtb bLac sens	Mtb H37Rv	RecA intein inh	others
CCOc1cc(NC2CS(=O)(=O)CC2O)c(OCC)cc1NC(=O)c1ccccc1 (centres undefined)	-21	-6	-4	-7%	59*
Cc1ccc2c(C(=O)CN3CCN(C(=O)c4ccco4)CC3)c(C)[nH]c2c1	.	.	-14	-4%	0.1
O=C(Nc1cccc(NC(=O)c2ccco2)c1)c1ccccc1	.	.	1	.	-2.3
Brc1cccc(-c2nnc3sc(CNCc4ccco4)cn23)c1	-28	-6	5	4%	6.4	Arbovirus inh repeat=1
Cn1c(=O)c2c(nc(Br)n2CC(=O)C23CC4CC(CC(C4)C2)C3)n(C)c1=O	-27	-11	6	2%	6.0
CC(C)N(C(=O)CSc1nnc(CNc2ccc(F)cc2)o1)C(C)C	-26	-2	-18	-6%	-3.1
COc1ccccc1CC(=O)O/N=C(\N)c1ccccn1	.	.	-6	-3%	-0.5
Cc1ccc(S(=O)(=O)C2(C(=O)Nc3cccnc3)CC2)cc1	-19	0	-1	5%	-1.0
CN(C(=O)/C=C/c1cnc2ccccc2c1)C1CCCCC1	.	-2	80	12%	-3.3
CSc1c(C#N)c(N)nc2sc(C(=O)c3ccccc3)c(N)c12	.	.	56	1%	2.3
COc1cccc(-c2cc3c(=O)n(-c4ccccc4)c(=S)[nH]c3s2)c1	-15	3	-8	-6%	-0.2
N#Cc1c(NC(=O)CSc2ccccn2)oc(-c2ccccc2)c1-c1ccccc1	-3	-23	1	1%	4.9
CCCOc1ccc(N2C(=O)CC(N3CCN(c4ccccc4F)CC3)C2=O)cc1 (centres undefined)	-29	5	-20	3%	4.6	Arbovirus inh repeat=1
Cc1ccc(C(=O)CC(=O)c2ccc(C(C)(C)C)cc2)cc1	.	-18	48	3%	.
CC(C)(C)C1=CC=C(C(C)(C)C)C(=O)C1=O	.	.	6	15%	-1.4
Cc1cc(C(=O)NCCc2ccc(Cl)cc2)c2ccccc2n1	.	.	-8	.	-2.5
Cc1sc2ncnc(NCCc3ccc(S(N)(=O)=O)cc3)c2c1C	-2	15	4	.	-3.2
Cc1ccc(S(=O)(=O)N2CCN(C(=O)CSc3cc(C)ccc3C)CC2)c(C)c1	.	.	4	.	5.8
CCOc1ccccc1CNC(=O)c1ccc(NC(=O)C2=C(C)OCCS2)cc1	.	.	49	.	1.6
COc1ccc(S(=O)(=O)N2CCC(C(=O)N[C@@H](C)C(=O)NCc3ccc(F)cc3)CC2)cc1	.	.	-1	.	1.9
COc1ccc(C(=O)O)cc1S(=O)(=O)NC(C)(C)C	.	.	-4	-7%	-12
COc1ccc(OC)c(-n2cnnn2)c1	-23	2	3	-10%	-2.1
COc1cc(CNC2CCCC2)cc(Br)c1OCC(=O)Nc1ccccc1C	.	5	-1	8%	2.4
O=C(NCCS(=O)(=O)NCCCc1ccccc1)c1ccccc1	.	.	-10	.	0.8
CC(C)(C)CC(C)(C)NC1=CC(=O)OC12CCCCC2	9	6	1	3%	3.5
Cc1cc(=O)n(CC(=O)NCCN2CCOCC2)c2c1c(C)nn2-c1ccccc1	.	.	0	.	-2.7
CCOc1ccc(CCNC(=O)CS(=O)(=O)Cc2nc(-c3cccc(OC)c3)oc2C)cc1	.	.	-3	.	0.4
N=c1sc2c(n1Cc1ccccc1)CCCC2	-32	15	4	-9%	-0.5
COc1ccc(-c2c(-c3ccc(OCC(=O)NN)cc3O)n[nH]c2C(F)(F)F)cc1	-21	-6	0	5%	4.1
Cc1cccc(C(=O)NNC(=O)Nc2ccccc2)c1	.	20	1	-2%	-0.5

Grouped by structure: those above with a COOH group.
SMILES	YopH PTP inh	Arbovirus inh	Mtb bLac sens	Mtb H37Rv	RecA intein inh	others
O=C(O)c1cccc(Nc2ncnc3sccc23)c1	.	0	-10	2%	-0.3
Cc1cccc(OCCSc2nc3ccccc3n2CC(=O)O)c1	.	.	6	.	1.3
COc1ccc(C(=O)O)cc1S(=O)(=O)NC(C)(C)C	.	.	-4	-7%	-12

Retrieved one by one from the list above, two records:
SMILES	YopH PTP inh	Arbovirus inh	Mtb bLac sens	Mtb H37Rv	RecA intein inh	others
Cc1cc(=O)n(CC(=O)NCCN2CCOCC2)c2c1c(C)nn2-c1ccccc1	.	.	0	.	-2.7
N=c1sc2c(n1Cc1ccccc1)CCCC2	-32	15	4	-9%	-0.5

Returning to the listing, starting 4 compounds before the break.
SMILES	YopH PTP inh	Arbovirus inh	Mtb bLac sens	Mtb H37Rv	RecA intein inh	others
CCOc1ccc(CCNC(=O)CS(=O)(=O)Cc2nc(-c3cccc(OC)c3)oc2C)cc1	.	.	-3	.	0.4
N=c1sc2c(n1Cc1ccccc1)CCCC2	-32	15	4	-9%	-0.5
COc1ccc(-c2c(-c3ccc(OCC(=O)NN)cc3O)n[nH]c2C(F)(F)F)cc1	-21	-6	0	5%	4.1
Cc1cccc(C(=O)NNC(=O)Nc2ccccc2)c1	.	20	1	-2%	-0.5
COc1cccc(-c2nnc(SCC(=O)Nc3ccc4c(c3)OCCO4)n2Cc2ccco2)c1	9	1	-14	2%	-0.2
CCc1nnc(NC(=O)CN2CCN(Cc3ccccc3Cl)CC2)s1	.	.	9	.	0.9
Cc1ccc(C(=O)N/C(=C/c2ccc(C(C)C)cc2)C(=O)NCCCN2CCOCC2)cc1	.	.	0	-13%	.
O=C(N/N=C/c1c[nH]c2ccc(Br)cc12)c1ccccn1	.	4	98	23%	0.0
CCOC(=O)C1=C(CN2CCN(C(=O)c3ccco3)CC2)NC(=O)NC1c1ccc(C)cc1 (centres undefined)	.	.	-2	.	0.3
S=c1[nH]c(-c2cccs2)cn1-c1ccccc1	.	.	-4	.	-1.0
O=C(c1ccc(C(=O)N2CCCc3ccccc32)nc1)N1CCCc2ccccc21	.	.	6	-8%	0.7
COC(=O)C1C(=O)c2c([nH]c(C(=O)OC3CCCC3)c2C)CC1C (centres undefined)	-15	-10	-6	0%	-3.3
CCCCNc1c(-c2cccc(SC3CCCCC3)c2)nc2ccc(Cl)cn12	.	.	3	.	-1.1
O=C(Cn1cnc2c(cnn2-c2ccccc2)c1=O)c1ccc(Cl)cc1	-19	18	-13	-1%	0.2	Arbovirus inh repeat=11
Cc1noc(C)c1COc1ccccc1C(=O)N1CCN(S(=O)(=O)c2ccccc2C(F)(F)F)CC1	.	.	2	.	-1.1
CC(=NCCO)c1c(O)n(C)c(=O)n(C)c1=O	-19	-1	-4	-2%	0.8
Nc1c(C(=O)Nc2cccc(Cl)c2Cl)sc2nc(-c3cccnc3)ccc12	-35	-17	7	2%	-1.3
O=C(Nc1nc(-c2ccc(F)cc2)cs1)c1ccc(N2C(=O)CCC2=O)cc1	-23	2	5	.	-0.3
COC(=O)C[C@H]1c2cc(C(F)(F)F)ccc2S(=O)(=O)N1C1CCCCC1	.	.	-6	-10%	1.1
COc1nc(NC2CCCCC2)nc(N2CCCCCC2)n1	19	-25	96	13%	.

High-throughput results (PubChem BioAssay)

Some of the compounds tested. The share of hits here may be higher or lower than overall.
